Screening data deposited in PubChem by Broad Institute.
Calb FLC = affects C. albicans growth with fluconazole; actives 0.57% (n = 300,000); growth inhibition, % (test concentration not listed); AID 1979; C. albicans CaCi-2 (fluconazole-resistant clinical isolate) + fluconazole, Alamar Blue growth, 48 h;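 active = most replicates above 75%; inconclusive = exactly half above 75%; inactive = most below 75%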;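 note: all wells also contain fluconazole at 8 µg/ml as a sub-toxic cotreatment; 0% = median of DMSO wells and 100% = median of geldanamycin control wells; wells of about 8 µL received 7.5 nL stock; the first replicate is given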
FGF22 binding = FGF22 (human) thermal shift binding; Q9HCT0; recombinant FGF22 thermal shift, SYPRO orange fluorescence; percent of sucrose octasulfate shift, DMSO zero; calls only at 9.99 µM; actives 1.5% (n = 340,000); AID 651658;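 active = melting point raised past a set limit in the mean and every replicate; inconclusive = no clear call; three in four hits are not shown here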
Target sequence (Q9HCT0 whole entry, looked up): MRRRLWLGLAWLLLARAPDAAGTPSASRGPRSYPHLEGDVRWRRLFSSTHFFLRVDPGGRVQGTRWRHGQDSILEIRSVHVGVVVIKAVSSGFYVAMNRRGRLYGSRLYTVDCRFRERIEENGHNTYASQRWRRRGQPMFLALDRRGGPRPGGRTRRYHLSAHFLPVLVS
ALR inh = blocks human ALR sulfhydryl oxidase activity | purified ALR, DTT oxidation, H2O2 HRP-luminol luminescence | inhibition, % (no concentration beside the values) | P55789 | actives 3.8% (n = 290,000);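 active = mean and each replicate at 75% or more; inconclusive = only one of the two met; inactive = neither met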;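 note: stock transfer was 7.5 nL into about 7.5 µL; 0% = neutral wells and 100% = wells with inactivated enzyme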
Target sequence (P55789 whole entry, looked up): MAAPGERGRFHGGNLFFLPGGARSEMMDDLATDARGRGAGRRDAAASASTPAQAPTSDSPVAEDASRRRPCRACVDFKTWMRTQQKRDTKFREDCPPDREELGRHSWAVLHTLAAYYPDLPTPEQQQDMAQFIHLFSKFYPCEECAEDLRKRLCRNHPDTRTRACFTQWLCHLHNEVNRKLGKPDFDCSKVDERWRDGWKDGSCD
Beta apoptosis = blocks beta cell apoptosis. INS-1E cytokine-induced death, ATP luminescence, 48 h; percent of positive-control rescue, neutral wells zero. actives 0.8% (n = 300,000). protection from apoptosis, % (no concentration beside the values);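 active = all replicates at 75% or more, or half of them and the mean; inconclusive = half reach 75% but not the mean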;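 note: 0% = cytokine-treated negative control wells and 100% = positive control rescue; higher means more ATP so stronger rescue from cytokine killing; wells of about 40 µL received 100 nL stock; the first replicate is given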
RanGTP-Impb inh = inhibitors of RanGTP-importin-beta interaction, primary screen, biochemical, FRET, CFP-Ran, YFP-importin-beta, homogeneous. cell-free CFP-Ran/YFP-importin-beta FRET ratio. inhibition, % (no concentration beside the values). actives 1.1% (n = 300,000);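 active = most replicates above 15%; inconclusive = exactly half above 15%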;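 note: 0% = DMSO wells and 100% = Ran loaded with GDP instead of GTP; wells of about 40 µL received 100 nL stock; the first replicate is given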
T cruzi repl = blocks replication of Trypanosoma cruzi. T. cruzi beta-gal in NIH3T3, luminescence, 90 h. actives 1.4% (n = 300,000). inhibition, % (test concentration not listed);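 active = mean inhibition across valid replicates above about 55%, limit read from the data; inconclusive = mean below that limit but half or more replicates reach it; inactive = mean below it, under half of replicates reach it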;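 note: signal also drops with host cell toxicity which is not excluded here; 0% = plate median of DMSO wells and 100% = zero luminescence signal; higher percent means less beta-gal luminescence so fewer parasites; stock transfer was 50 nL into about 50 µL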
AF4-AF9 inh = blocks AF4 peptide binding to human AF9 | inhibition, % at 10 µM | AlphaScreen, biotin-AF4 peptide binding to FLAG-AF9 | P42568 | AID 651704 | actives 0.47% (n = 350,000);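 active = every replicate reaching a set inhibition limit, whatever the replicate mean, cut at about 25% in these data; inconclusive = mean inhibition reaches that limit but some replicates miss it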;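 note: 0% = plate neutral control median and 100% = total signal loss; the record names both 10 and 1 µM as test concentration; the first replicate is given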
Target sequence (P42568 whole entry, looked up): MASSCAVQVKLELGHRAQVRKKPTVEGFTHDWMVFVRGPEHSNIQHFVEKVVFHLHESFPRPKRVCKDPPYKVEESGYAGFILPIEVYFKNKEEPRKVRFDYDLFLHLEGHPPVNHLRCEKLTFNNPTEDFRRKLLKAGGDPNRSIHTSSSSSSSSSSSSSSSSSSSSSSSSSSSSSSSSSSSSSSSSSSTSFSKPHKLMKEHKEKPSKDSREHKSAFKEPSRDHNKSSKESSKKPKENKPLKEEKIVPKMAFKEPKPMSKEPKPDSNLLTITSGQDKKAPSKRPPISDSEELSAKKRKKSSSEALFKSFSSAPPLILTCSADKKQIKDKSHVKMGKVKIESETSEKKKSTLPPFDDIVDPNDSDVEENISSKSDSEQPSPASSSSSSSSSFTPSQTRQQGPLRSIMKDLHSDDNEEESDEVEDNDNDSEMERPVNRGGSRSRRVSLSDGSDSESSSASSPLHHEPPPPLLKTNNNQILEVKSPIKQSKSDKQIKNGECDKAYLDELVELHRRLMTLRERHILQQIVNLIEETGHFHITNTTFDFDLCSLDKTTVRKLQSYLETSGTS
Ecoli rRNA inh = inhibitors of bacterial rRNA selective over humanized ribosomes; E. coli WT GFP vs humanized-ribosome RFP mutants, fluorescence, 24 h; hits give low values; DMSO median 0, no signal -100; GFP signal change (wild-type ribosome), % (concentration not given with the values); actives 1.6% (n = 350,000);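 active = significant combined selectivity score with lowered wild-type GFP, culture density cut under 30%, mutant RFP and density less affected; inactive = any of these conditions unmet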; note: one replicate is shown; some compounds called inactive have numbers as strong as hits
Ecoli rRNA inh OD600 = also measured in Ecoli rRNA inh; calls as there; OD600 change, %; measured here: OD600 growth;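 optical density of the mix in the first replicate; 0 = DMSO median and -100 = no signal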
Ecoli rRNA inh RFP = further read-out of Ecoli rRNA inh, marked with its call; RFP signal change, %; measured here: RFP humanized mutant strains;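 first replicate; 0 = DMSO median and -100 = no signal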
The depositor's hits bear a star; i = inactive; ? = inconclusive; . = no result given. These rows are one share of the data; the hit share may differ from the screen's.

SMILES	Calb FLC	FGF22 binding	ALR inh	Beta apoptosis	RanGTP-Impb inh	T cruzi repl	AF4-AF9 inh	Ecoli rRNA inh	Ecoli rRNA inh OD600	Ecoli rRNA inh RFP
COC(=O)[C@H]1Cc2cnoc2C[C@]1(C)C(=O)O	-29	.	-2	0	-0.8	-2	.	.	.	.
O=C(c1ccccc1)c1nn(-c2ccc(Cl)cc2)c(=O)cc1C(F)(F)F	17	.	.	11	5.0	25	.	.	.	.
c1ccc(-c2noc(-c3ccno3)n2)nc1	-1	i	-3	-4	1.6	9	1.1	5	7	0.0
O=C(CN1CCN(C(C(=O)Nc2ccc(F)cc2)c2ccccc2)CC1)NC1CC1 (stereo not drawn)	.	i	-9	4	.	.	0.9	1	2	-1.7
CC(C)C[C@H](NC(=O)OC(C)(C)C)C(=O)N[C@@H](CO)[C@H](O)[C@@H]1C[C@@H]1C(=O)NC1CCCCC1	4	i	1	-7	0.9	-10	-0.8	8	4	10
Cc1ccc(NC(=O)CN2C(=O)NC3(CCc4ccccc43)C2=O)cc1Cl (stereo not drawn)	-3	.	.	-11	0.8	-11	.	.	.	.
Cc1cc(C)c(Cn2c3ccccc3c3cnn(CC(=O)NCCN4CCOCC4)c(=O)c32)c(C)c1	18	i	.	3	0.7	-3	0.6	7	-16	27
N=C1C(c2nc3ccccc3[nH]2)=C(O)CN1NC(=O)COc1cccc(F)c1	-3	.	-6	-3	1.9	-10	.	.	.	.
O=C(c1cnccn1)N(Cc1ccco1)C1(C(=O)NC2CCCCC2)CCCCC1	1	.	.	-4	2.1	-4	.	.	.	.
CC(C(=O)NCc1ccccc1)N1CCN(c2ccc(F)cc2)CC1 (stereo not drawn)	-6	i	17	-2	-1.0	43	-0.1	5	3	0.4
C=CCn1c(-c2ccccc2OCC)n[nH]c1=S	-3	.	.	-16	-2.9	1	-5.0	4	4	2.7
CCCCC(=O)Nc1ccc(C)c(S(=O)(=O)N2CCCCCC2)c1	.	i	-1	-2	.	.	-1.3	-40	-66	-5.5
O=C(NCc1ccc(F)cc1)c1cc(-c2ccco2)on1	-19	.	0	-7	6.2	5	.	.	.	.
CCOc1ccc(N(CC(=O)NCc2ccc(F)cc2)C(=O)c2snc(C(N)=O)c2N)cc1	-3	i	.	1	0.4	-13	0.0	5	7	0.8
CSc1ccc(NC(=O)Nc2cc(C)ccn2)cc1	-26	i	-3	1	-2.6	6	1.2	2	4	-1.7
CC(C)n1c(-c2ccccc2F)n[nH]c1=S	-2	i	8	-3	0.4	-14	-47	1	-5	3.3
CN(CC(=O)Nc1ccccc1C(F)(F)F)C(=O)Cc1ccccc1F	3	i	-5	-4	1.7	-15	-1.3	4	12	-2.1
CC(NC(=O)c1ccc2ccccc2n1)c1ccccc1 (stereo not drawn)	-19	i	7	-14	-1.7	5	-4.0	-5	-6	-4.7
CN1CCN(CCCc2c3c(cc4c2CCC4)CCC3)CC1	-6	i	1	-2	-1.9	62*	4.8	-2	3	0.4
Cc1cc2oc(C(=O)NC3CCS(=O)(=O)C3)c(C)c2cc1C (stereo not drawn)	-5	.	-1	1	1.2	15	.	.	.	.
COc1ccc(C(=O)NC(=S)NNC(=O)c2ccc(C)cc2)cc1	107*	i	0	7	2.4	16	-2.8	-54	-74	-14
O=C1CCCC2=C1C(c1cccc(O)c1)C1=C(N2)c2ccccc2C1=O (stereo not drawn)	14	i	-1	-2	7.0	-12	-0.9	11	6	2.2
CN(C)CCCNc1nc(N)c([N+](=O)[O-])c(NCCO)n1	-3	i	-13	-1	4.3	-4	-4.7	7	2	1.5
CCN(CC(=O)NC(c1ccccc1)c1ccccc1)Cc1nc2ccccc2c(=O)[nH]1	-6	.	4	-7	0.0	4	.	.	.	.
O=C(c1ccccc1)N1CCCC(C(=O)N2CCc3ccccc3C2)C1 (stereo not drawn)	6	.	-10	3	2.7	-5	.	.	.	.
Cc1ccoc1C(=O)Nc1cccc(Oc2ccccc2)c1	2	.	-2	-3	1.8	9	.	.	.	.
CN(C)C(=O)CNc1n[nH]c(=S)[nH]c1=O	-1	i	10	-8	5.0	-4	-4.5	16	10	0.0
Cc1ccc(Cl)cc1S(=O)(=O)N1CCC(C(=O)NC2CCN(Cc3ccccc3)CC2)CC1	-12	i	-1	20	1.0	27	6.3	7	5	-1.9
O=C(Cc1cc(=O)[nH]c(=O)[nH]1)NCc1ccc(Cl)cc1	-9	i	11	.	?	-9	0.2	9	7	-2.7
C=CCn1c(N2CCCCCC2)nc2c1c(=O)[nH]c(=O)n2C	11	.	17	-5	9.5	7	.	.	.	.
CNS(=O)(=O)c1cc(-c2nnc(Nc3ccc(NC(C)=O)cc3)c3ccccc23)ccc1C	3	i	3	.	-0.9	-6	-4.2	-6	1	-1.6
CCCCN(C(=O)CSc1n[nH]c(-c2ccc(C)cc2)n1)c1c(N)n(CCCC)c(=O)[nH]c1=O	-4	i	6	-4	.	-9	-0.6	5	1	-1.9
O=C(NCc1ccco1)/C(=C\c1ccco1)NC(=O)c1ccccc1Cl	-8	i	.	3	1.4	-5	-1.8	-4	-4	-2.8
CN(C(=O)c1ccc(COc2ccccc2Br)o1)c1ccccc1	4	i	.	-8	-2.4	19	-0.1	-23	-35	-5.5
Fc1cccc(-c2nn[nH]n2)c1	-2	.	-11	-6	-2.0	-2	.	.	.	.
COc1ccc(N=NC2=C(O)CC(C)(C)CC2=O)cc1	-3	.	-17	-7	-2.4	2	.	.	.	.
O=C(NCc1ccncc1)C(=O)Nc1nccs1	0	i	-2	-4	?	3	4.5	.	.	.
Cc1cnnc2ccc3c(no[n+]3[O-])c12	8	.	-20	-1	-1.1	-14	.	.	.	.
CCC1(c2ccccc2)NC(=O)N(CC(=O)Nc2ccc(OC)nc2)C1=O (stereo not drawn)	4	i	-12	-1	1.8	-8	1.4	43	13	6.6
CCCCNC(=O)CSc1nnc(-c2ccco2)n1C	-5	.	0	-6	2.5	-5	.	.	.	.

Full records from above.
`CCC1(c2ccccc2)NC(=O)N(CC(=O)Nc2ccc(OC)nc2)C1=O` (stereo not drawn) is listed with Calb FLC: 4; FGF22 binding: i; ALR inh: -12; Beta apoptosis: -1; RanGTP-Impb inh: 1.8; T cruzi repl: -8; AF4-AF9 inh: 1.4; Ecoli rRNA inh: 43; Ecoli rRNA inh OD600: 13; Ecoli rRNA inh RFP: 6.6
`Fc1cccc(-c2nn[nH]n2)c1` is listed with Calb FLC: -2; FGF22 binding: .; ALR inh: -11; Beta apoptosis: -6; RanGTP-Impb inh: -2.0; T cruzi repl: -2; AF4-AF9 inh: .; Ecoli rRNA inh: .; Ecoli rRNA inh OD600: .; Ecoli rRNA inh RFP: .

(continued)
SMILES	Calb FLC	FGF22 binding	ALR inh	Beta apoptosis	RanGTP-Impb inh	T cruzi repl	AF4-AF9 inh	Ecoli rRNA inh	Ecoli rRNA inh OD600	Ecoli rRNA inh RFP
CN(CC(=O)NCCCN1CCOCC1)S(=O)(=O)c1ccc(Br)cc1	-17	.	2	-3	-1.1	-8	.	.	.	.
NC(=O)C1CCN(CC(=O)Nc2ccccc2Sc2ccccc2)CC1	-3	i	-1	-4	-1.6	-3	3.0	-21	-33	-9.1
Cc1nc2ccccc2c(=O)n1-c1ccc(F)c(NC(=O)c2cccs2)c1	-9	i	-8	-4	7.8	-2	3.0	5	11	-1.8
COc1cc(OC)cc(-c2c(C#Cc3ccsc3)c3cc(-c4ccc(C(N)=O)cc4)ccc3n2C)c1	.	i	-3	5	.	.	4.9	3	9	-5.5
COc1ccc(S(=O)(=O)N2CCCC(C(=O)NCCC(C)C)C2)cc1 (stereo not drawn)	-22	i	-1	7	-0.7	6	-1.0	6	9	0.1
C=CCn1c(-c2cc(-c3ccc(C)cc3)nc3ccccc23)n[nH]c1=S	49	.	94*	4	6.7	33	3.5	-29*	-16*	2.7*
CC(=O)Nc1ccc(S(=O)(=O)NC2=C(N3CCN(c4ccc(F)cc4)CC3)C(=O)c3ccccc3C2=O)cc1	12	i	-14	85*	-1.1	-23	45*	-8	-1	-4.4
CCc1nc(SCC(=O)Nc2nccs2)c2oc3ccccc3c2n1	-2	.	.	-2	-3.1	13	.	.	.	.
CN(Cc1cn(C)nc1-c1ccccc1F)Cc1nccn1C	0	i	-1	-1	3.8	-9	0.3	12	11	-2.2
O=C(O)c1ccc(/C=N/Nc2ccc(C(F)(F)F)cn2)cc1	-6	i	.	.	-2.2	-18	-0.6	-31	-29	-7.9
Cc1ccc(-n2nnnc2SCC(=O)NC2CCCc3ccccc32)cc1 (stereo not drawn)	35	i	-3	-7	-0.1	7	-0.4	-30*	-1.9*	-3.9*
COc1ccc(CNC(=S)NC(C)CCc2ccccc2)cc1 (stereo not drawn)	-33	i	.	2	-3.6	-5	-1.7	-6	-2	-1.7
CC1=NN(c2ccccc2)C(=O)C1C(=O)c1ccc([N+](=O)[O-])cc1 (stereo not drawn)	-4	i	-13	8	10	-9	0.7	3	0	-0.9
OCCN1CCN(CCCN2c3ccccc3Sc3ccc(C(F)(F)F)cc32)CC1	.	i	98*	11	3.3	18	18	-62	-79	-19
COc1ccc(NC(=O)c2cc3ccccc3oc2=O)c(OC)c1	13	i	-8	-3	?	1	-1.2	12	11	-2.9
Cc1nc(NC(=S)NC(=O)c2cccs2)ccc1Br	0	i	-7	-5	4.8	19	3.5	20	6	-0.2
O=C1c2ccccc2C(=O)N1CCCCON1C(=O)c2ccccc2C1=O	?	.	-24	-3	0.8	-7	.	.	.	.
CCOC(=O)N1CCc2c(sc3nc4n(c(=O)c23)N=C(c2ccc(OC)cc2)CS4)C1	-7	i	.	.	8.2	-11	0.2	.	.	.
CCN1CC(CN(C)Cc2nc(-c3ccco3)oc2C)CC1=O (stereo not drawn)	-8	i	2	-4	1.3	-10	-1.4	5	5	-0.7
COc1cc(OC)c(NC(=O)c2ccc(Br)o2)cc1Cl	4	.	24	3	-1.6	5	.	.	.	.
CCn1c(=O)n(CC(=O)Nc2ccc(F)cc2)c(=O)c2ccccc21	-23	i	-1	-3	3.7	-19	-1.6	6	5	-0.2
CCOC(=O)c1ccc(Oc2c(C)oc3cc(OS(C)(=O)=O)ccc3c2=O)cc1	-8	i	-32	-6	0.3	-6	1.1	3	-2	6.3
O=C1c2cccnc2C(=O)N1Cc1ccc(F)cc1	0	.	-2	-4	-0.3	0	.	.	.	.
COc1c(OC)c(O)c2c(=O)c(O)c(-c3ccccc3)oc2c1OC	8	i	-18	-2	0.9	-6	-2.2	.	.	.
CCCN1CCC(Oc2cccc(C(=O)NCCc3ccccc3)c2)CC1	5	i	10	1	2.7	25	-4.0	2	-6	0.3
COc1cc(SC)ccc1C(=O)N(Cc1ccccc1)c1ccccn1	0	i	-25	-4	-0.7	11	.	-19*	-6.5*	2.2*
COc1cccc(C(C#N)N2N=C(C)CC2(C)C)c1O (stereo not drawn)	-18	.	-2	-6	1.6	2	.	.	.	.
CCCCc1cc(=O)oc2c(C)c(OCC(=O)N3CCC(C(=O)O)(c4ccccc4)CC3)ccc12	3	i	-1	1	-0.8	-3	-2.2	.	.	.
O=S(=O)(N1CCCCC1)n1nnc2ccccc21	8	.	-1	-5	-2.0	-17	.	.	.	.
Cc1ccccc1CS(=O)(=O)Cc1ccc(C(=O)NC2CCCCC2)o1	13	i	37	-6	3.6	4	1.4	4	9	8.8
